# Screening results: PubChem, Broad Institute
# A1 apoptosis 2: A1 inhibitors via caspase activation, primary screen, cell-based, luminescence, HTS, two replicates. caspase activation, % (concentration not given with the values). 24,000 tested, under 10 active. MEF A1-2A-BIM cells, caspase-Glo luminescence, 3 h; percent of clofoctol response, DMSO zero; in the data active = caspase activation above about 5.9%;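 note: wells of about 30 µL received 50 nL stock; the first replicate is given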
#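 Material: A1-2A-BIM-expressing MEF cells. Buffer or medium: RPMI-1640 plus 10% FBS. Incubation: cells settled overnight, compound exposure 3 h at 37 °C, 5% CO2. Signal: Caspase-Glo 3/7 luminescence, 1 h at room temperature.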
# Starred values were filed as active, the others as inactive.
SMILES,A1 apoptosis 2
O=C1O[C@H](c2ccccc2)[C@H](c2ccccc2)N2[C@H]1[C@@H](C(=O)N1CCN(c3ncccn3)CC1)[C@]1(C(=O)Nc3ccc(C#CC4=CCCCC4)cc31)[C@H]2c1ccc(OCCO)cc1,-0.8
Cc1noc(C)c1NC(=O)Nc1ccc2c(c1)C(=O)N([C@H](C)CO)C[C@H](C)[C@H](CN(C)S(=O)(=O)c1ccc(F)cc1)OCCCC[C@@H](C)O2,-0.8
C[C@@H]1CN([C@H](C)CO)C(=O)c2cccc(NS(=O)(=O)c3ccccc3)c2O[C@@H]1CN(C)Cc1ccncc1,0.5
CNC[C@H]1Oc2ccc(NS(=O)(=O)c3c(C)noc3C)cc2CC(=O)N([C@@H](C)CO)C[C@@H]1C,-0.5
C[C@@H]1CN([C@@H](C)CO)C(=O)c2cc(NS(=O)(=O)c3cn(C)cn3)ccc2O[C@H]1CN(C)S(=O)(=O)c1cn(C)cn1,-0.2
C[C@H](CO)N1C[C@H](C)[C@H](CN(C)C)Oc2ccc(NC(=O)Cn3cnnn3)cc2C1=O,1.9
COc1ccc(CN(C)C[C@@H]2Oc3c(NC(=O)Nc4cccc5ccccc45)cccc3C(=O)N([C@H](C)CO)C[C@@H]2C)cc1,0.8
C[C@H](CO)N1C[C@H](C)[C@H](CN(C)Cc2ccc(Cl)c(Cl)c2)Oc2ccc(N(C)C)cc2C1=O,0.0
C[C@H]1CN([C@@H](C)CO)C(=O)c2cc(NC(=O)Nc3ccc4c(c3)OCO4)ccc2O[C@@H]1CN(C)S(=O)(=O)c1ccc(Cl)cc1,0.3
C[C@H]1CN([C@@H](C)CO)C(=O)c2cc(NS(=O)(=O)c3ccc(Cl)cc3)ccc2O[C@@H]1CN(C)Cc1ccccc1,0.4
COc1ccc(NC(=O)Nc2ccc3c(c2)C(=O)N([C@H](C)CO)C[C@H](C)[C@H](CN(C)CC2CC2)OCCCC[C@@H](C)O3)cc1,-0.3
C[C@@H]1CN([C@@H](C)CO)C(=O)Cc2cc(NC(=O)CCN3CCOCC3)ccc2O[C@H]1CN(C)C,-0.4
C[C@H](CO)N1C[C@H](C)[C@H](CN(C)S(=O)(=O)c2cn(C)cn2)OCCCC[C@H](C)Oc2ccc(NC(=O)Cc3ccccc3)cc2C1=O,-0.7
COc1cc(/C=N/NC(=O)CCCCCCC(=O)Nc2ccccc2O)c(Br)cc1O,-0.5
COc1ccc(S(=O)(=O)N(C)C[C@H]2OCCCC[C@@H](C)Oc3ccc(NC(=O)c4ccncc4)cc3C(=O)N([C@H](C)CO)C[C@@H]2C)cc1,-0.2
C[C@@H]1CN([C@H](C)CO)C(=O)c2cc(NC(=O)Nc3ccc(C(F)(F)F)cc3)ccc2O[C@@H](C)CCCCO[C@H]1CN(C)S(=O)(=O)c1cn(C)cn1,-0.3
C[C@H]1CN([C@@H](C)CO)C(=O)c2cccc(NS(=O)(=O)c3ccccc3)c2O[C@H]1CN(C)C(=O)NC1CCCCC1,-0.8
COc1ccc(S(=O)(=O)N(C)C[C@H]2OCCCC[C@@H](C)Oc3ccc(NC(=O)CCC(F)(F)F)cc3C(=O)N([C@@H](C)CO)C[C@H]2C)cc1,0.1
C[C@H]1CN([C@@H](C)CO)C(=O)c2cc(NC(=O)C3CC3)ccc2O[C@H]1CN(C)S(=O)(=O)c1ccc(F)cc1,0.0
C[C@@H]1CN([C@@H](C)CO)C(=O)Cc2cc(NC(=O)Nc3cccc4ccccc34)ccc2O[C@H]1CN(C)S(=O)(=O)c1cn(C)cn1,-0.7
C[C@@H]1CN([C@H](C)CO)C(=O)Cc2cc(NS(=O)(=O)c3cccs3)ccc2O[C@H]1CN(C)CC1CC1,-0.6
C[C@@H]1CN([C@H](C)CO)C(=O)c2cccc(NS(C)(=O)=O)c2O[C@@H]1CN(C)C(=O)NC1CCCCC1,-0.6
C[C@H](CO)N1C[C@H](C)[C@@H](CN(C)Cc2ccc3c(c2)OCO3)Oc2ccc(NS(=O)(=O)c3ccc(F)cc3)cc2CC1=O,0.7
COc1ccc(S(=O)(=O)Nc2ccc3c(c2)C(=O)N([C@H](C)CO)C[C@H](C)[C@H](CN(C)S(=O)(=O)c2c(C)noc2C)OCCCC[C@H](C)O3)cc1,-0.3
C[C@H]1CN([C@@H](C)CO)C(=O)Cc2cc(NC(=O)Nc3ccccc3)ccc2O[C@@H]1CN(C)Cc1ccc(C(=O)O)cc1,-0.6
CC(C)NC(=O)Nc1ccc2c(c1)C(=O)N([C@H](C)CO)C[C@H](C)[C@H](CN(C)S(=O)(=O)c1cccs1)OCCCC[C@H](C)O2,0.1
Cc1noc(C)c1NC(=O)N(C)C[C@@H]1Oc2ccc(NC(=O)C3CC3)cc2C(=O)N([C@@H](C)CO)C[C@@H]1C,1.1
Cc1noc(C)c1S(=O)(=O)Nc1ccc2c(c1)C(=O)N([C@H](C)CO)C[C@H](C)[C@H](CN(C)S(=O)(=O)c1cccs1)OCCCC[C@@H](C)O2,0.1
C[C@H](CO)N1C[C@H](C)[C@H](CN(C)Cc2ccc(Cl)c(Cl)c2)Oc2ccc(NC(=O)Nc3ccc4c(c3)OCO4)cc2CC1=O,0.3
CNC[C@H]1Oc2c(NC(=O)C3CCOCC3)cccc2C(=O)N([C@H](C)CO)C[C@H]1C,0.0

# Six compounds out of the list, arranged by heavy-atom count, low to high:
SMILES,A1 apoptosis 2
CNC[C@H]1Oc2c(NC(=O)C3CCOCC3)cccc2C(=O)N([C@H](C)CO)C[C@H]1C,0.0
C[C@@H]1CN([C@H](C)CO)C(=O)Cc2cc(NS(=O)(=O)c3cccs3)ccc2O[C@H]1CN(C)CC1CC1,-0.6
Cc1noc(C)c1NC(=O)N(C)C[C@@H]1Oc2ccc(NC(=O)C3CC3)cc2C(=O)N([C@@H](C)CO)C[C@@H]1C,1.1
CC(C)NC(=O)Nc1ccc2c(c1)C(=O)N([C@H](C)CO)C[C@H](C)[C@H](CN(C)S(=O)(=O)c1cccs1)OCCCC[C@H](C)O2,0.1
C[C@H](CO)N1C[C@H](C)[C@H](CN(C)Cc2ccc(Cl)c(Cl)c2)Oc2ccc(NC(=O)Nc3ccc4c(c3)OCO4)cc2CC1=O,0.3
Cc1noc(C)c1S(=O)(=O)Nc1ccc2c(c1)C(=O)N([C@H](C)CO)C[C@H](C)[C@H](CN(C)S(=O)(=O)c1cccs1)OCCCC[C@@H](C)O2,0.1

# (continued)
SMILES,A1 apoptosis 2
C[C@@H]1CN([C@@H](C)CO)C(=O)c2cc(NS(C)(=O)=O)ccc2O[C@@H](C)CCCCO[C@H]1CN(C)Cc1ccncc1,-0.3
C[C@H](CO)N1C[C@H](C)[C@@H](CN(C)C(=O)Nc2ccc(C(F)(F)F)cc2)Oc2ccc(NC(=O)C3CC3)cc2C1=O,-1.0
C[C@@H]1CN([C@@H](C)CO)C(=O)c2cccc(NS(C)(=O)=O)c2O[C@@H]1CN(C)Cc1ccc(Oc2ccccc2)cc1,-0.2
C[C@@H]1CN([C@@H](C)CO)C(=O)c2cc(NC(=O)NC3CCCCC3)ccc2O[C@@H]1CN(C)C,-0.2
COc1ccc(COCC23N=C4SCC(=O)N4[C@H](c4ccccc4O2)[C@H]3COC(=O)c2ccccc2)cc1,-0.7
Cc1noc(C)c1NC(=O)N(C)C[C@@H]1Oc2ccc(NC(=O)CCC(F)(F)F)cc2C(=O)N([C@H](C)CO)C[C@H]1C,0.1
C[C@H](CO)N1C[C@H](C)[C@@H](CN(C)C(=O)Nc2ccc(C(F)(F)F)cc2)Oc2ccc(N(C)C)cc2CC1=O,-0.3
C[C@@H]1CN([C@@H](C)CO)C(=O)CCCn2cc(nn2)CO[C@H]1CN(C)Cc1ccc2c(c1)OCCO2,-0.1
C[C@@H]1CCCCO[C@H](CN(C)C(=O)Cc2ccccc2)[C@H](C)CN([C@@H](C)CO)C(=O)c2cc(NC(=O)c3ccncc3)ccc2O1,0.0
Cc1ccc(S(=O)(=O)N(C)C[C@@H]2OCCCC[C@H](C)Oc3ccc(NS(=O)(=O)c4ccc(Cl)cc4)cc3C(=O)N([C@H](C)CO)C[C@H]2C)cc1,0.3
O=C(CCCCCCC(=O)Nc1ccccc1O)N/N=C/c1ccccn1,0.3
C[C@H](CO)N1C[C@H](C)[C@H](CN(C)Cc2ccc(C(F)(F)F)cc2)Oc2c(NS(=O)(=O)c3cccs3)cccc2C1=O,0.7
CC(C)NC(=O)Nc1cccc2c1O[C@@H](CN(C)Cc1ccc(Cl)c(Cl)c1)[C@H](C)CN([C@H](C)CO)C2=O,1.0
C[C@H](CO)N1C[C@H](C)[C@H](CN(C)C(=O)Nc2ccc(C(F)(F)F)cc2)Oc2c(NS(=O)(=O)c3ccccc3)cccc2C1=O,0.3
CNC[C@H]1Oc2c(NC(=O)c3cc(C)nn3C)cccc2C(=O)N([C@H](C)CO)C[C@H]1C,-0.5
CNC[C@H]1Oc2c(NC(=O)c3ccc(-c4nccs4)cc3)cccc2C(=O)N([C@H](C)CO)C[C@H]1C,-0.6
C[C@@H]1CCCCO[C@H](CN(C)S(=O)(=O)c2ccc(F)cc2)[C@H](C)CN([C@@H](C)CO)C(=O)c2cc(NC(=O)Nc3ccc(C(F)(F)F)cc3)ccc2O1,0.3
O=C(C1=C[C@H](c2csc3ccccc23)C[C@H](OCCCCO)O1)N1CCCCCCC1,0.0
C[C@H]1CCCCO[C@@H](CN(C)Cc2ccc3c(c2)OCO3)[C@@H](C)CN([C@@H](C)CO)C(=O)c2cc(NC(=O)Cc3ccccc3)ccc2O1,0.3
C[C@H]1CN([C@@H](C)CO)C(=O)c2cc(NC(=O)Nc3cccc4ccccc34)ccc2O[C@H]1CN(C)C(=O)Nc1ccc2c(c1)OCO2,-0.5
C[C@@H]1CN([C@@H](C)CO)C(=O)Cc2cc(NC(=O)Cn3cnnn3)ccc2O[C@H]1CN(C)S(=O)(=O)c1ccccc1,-0.1
COc1ccc(CN(C)C[C@@H]2Oc3ccc(NC(=O)Nc4ccc(C(F)(F)F)cc4)cc3C(=O)N([C@@H](C)CO)C[C@@H]2C)cc1,-2.6
C[C@H]1CCCCO[C@@H](CN(C)Cc2ccncc2)[C@@H](C)CN([C@@H](C)CO)C(=O)c2cc(NS(=O)(=O)c3ccccc3)ccc2O1,1.4
C[C@@H]1CCCCO[C@H](CN(C)C)[C@@H](C)CN([C@H](C)CO)C(=O)c2cc(NS(=O)(=O)c3cn(C)cn3)ccc2O1,0.2
COc1ccc(CN(C)C[C@@H]2OCCCC[C@@H](C)Oc3ccc(NS(=O)(=O)c4ccccc4)cc3C(=O)N([C@@H](C)CO)C[C@H]2C)cc1,-0.4
C[C@@H]1CN([C@H](C)CO)C(=O)c2cccc(NC(=O)C3CCCCC3)c2O[C@H]1CN(C)CC1CCCCC1,-0.9
C[C@@H]1CCCCO[C@H](CN(C)Cc2ccncc2)[C@@H](C)CN([C@H](C)CO)C(=O)c2cc(NC(=O)Nc3ccccc3)ccc2O1,0.3
C[C@@H]1CN([C@@H](C)CO)C(=O)c2cc(NS(=O)(=O)c3cccs3)ccc2O[C@@H](C)CCCCO[C@@H]1CN(C)C(=O)NC1CCCCC1,-0.5
C[C@@H]1CN([C@@H](C)CO)C(=O)c2cc(NC(=O)C3CC3)ccc2O[C@H]1CN(C)S(=O)(=O)c1cn(C)cn1,0.1
O=C(O)CCCCCCC(=O)N/N=C/C1CCCCC1,0.8
C[C@@H]1CN([C@@H](C)CO)C(=O)CCCn2cc(nn2)CO[C@H]1CN(C)CC1CCCC1,0.4
C[C@H](CO)N1C[C@H](C)[C@H](CN(C)S(=O)(=O)c2cccs2)OCCCC[C@H](C)Oc2ccc(NC(=O)c3ccccc3)cc2C1=O,0.2
C[C@H]1CN([C@@H](C)CO)C(=O)CCCn2nncc2CO[C@@H]1CN(C)C(=O)Nc1cccc2ccccc12,0.5
Cc1noc(C)c1NC(=O)N(C)C[C@H]1Oc2ccc(NC(=O)Cc3cn(C)c4ccccc34)cc2CC(=O)N([C@@H](C)CO)C[C@H]1C,0.0
C[C@@H]1CCCCO[C@H](CN(C)C(=O)CCCN(C)C)[C@H](C)CN([C@@H](C)CO)C(=O)c2cc(NC(=O)c3ccncc3)ccc2O1,0.4
C[C@H]1CN([C@@H](C)CO)C(=O)Cc2cc(NC(=O)NC3CCCCC3)ccc2O[C@H]1CN(C)C,-1.4
C[C@@H]1CN([C@H](C)CO)C(=O)CCCn2cc(nn2)CO[C@H]1CN(C)Cc1ccc2cccnc2c1,0.1
C[C@H]1CN([C@@H](C)CO)C(=O)Cc2cc(NC(=O)C3CC3)ccc2O[C@@H]1CN(C)Cc1ccc(-c2ccccc2)cc1,-0.6
Cc1noc(C)c1S(=O)(=O)Nc1ccc2c(c1)CC(=O)N([C@@H](C)CO)C[C@@H](C)[C@H](CN(C)Cc1ccc(-c3ccccc3)cc1)O2,-0.1
C[C@H]1CN([C@@H](C)CO)C(=O)Cc2cc(NC(=O)C3CCCCC3)ccc2O[C@H]1CN(C)S(C)(=O)=O,1.0
Cc1ccc(S(=O)(=O)N(C)C[C@H]2Oc3ccc(NC(=O)Nc4ccc(F)cc4)cc3CC(=O)N([C@H](C)CO)C[C@H]2C)cc1,0.3
C[C@@H]1CN([C@H](C)CO)C(=O)Cc2cc(NS(=O)(=O)c3cccs3)ccc2O[C@@H]1CN(C)C(=O)Nc1ccc(F)cc1,0.8
C[C@@H]1CN([C@H](C)CO)C(=O)Cc2cc(NC(=O)NC3CCCCC3)ccc2O[C@H]1CN(C)Cc1ccc2c(c1)OCO2,0.7

# A portion of the library; the hit share may differ from the screen's.
